From PubChem
Lassa entry inh = Lassa virus entry inhibition. actives 1.2% (n = 300,000). AID 540256. Lassa virus pseudotype entry inhibition, cell reporter; control for the full effect not named in the record. Potency, µM (titrated, usually from 37.9 µM), for the others: top-dose activity change, negative = inhibition, most hits filed as inhibitors; active means well fitted inhibition curve with a large enough effect; inconclusive means small, poorly fitted or top-dose-only effect, or effect the other way; inactive means flat fitted curve, though single readings scatter; tested in HEK293 cells; further: on the % scale 0 is the no-effect control and ±100 the full control effect; nearly all actives have a fitted effect of over 50% in size; luciferase read-out
RE007 growth inh = less growth of the S. pombe RE007 Vpr strain | Potency, µM (doses to about 92.2 µM), without a hit: top-dose activity change, negative = less growth | S. pombe RE007 Vpr strain, BacTiter-Glo ATP luminescence, 24 h; control for the full effect not named in the record | actives 0.21% (n = 360,000); active = well fitted falling curve with a large enough effect; inconclusive = small, poorly fitted or top-dose-only effect; inactive = no such curve, though single readings can be large or run the other way;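 further: on the % scale 0 is the no-effect control and ±100 the full control effect; nearly all actives have a fitted effect of over 50% in size; the assay follows cell death caused by Vpr and the record does not say whether a fall means rescue or toxicity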
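Fission yeast RE007 carrying one integrated HIV-1 vpr copy, seeded at OD 0.01 in PMG+AL medium with 23 nL pinned compound. Grown 24 h at 30 degrees; viability read by BacTiter-Glo luminescence after 5 min.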
Cruzain inh noDet = blocks cruzain activity in detergent-free assay; purified cruzain, Z-FR-AMC fluorescence, no detergent; P25779; AID 1476; actives 2.3% (n = 200,000); Potency, µM, for inactives: max response, negative = inhibition, most hits filed as inhibitors; active means well fitted curve in the direction sought with a large enough effect; inconclusive means small, poorly fitted or top-dose-only effect, or another doubt; inactive means no such curve, though single readings can be large; an effect the other way counts as inactive or inconclusive;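 further: plate controls were enzyme without inhibitor for no effect and buffer without enzyme for full effect; nearly all actives have a fitted effect of over 40% in size; top concentration of the series not given in the record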
Target sequence (P25779 123-467 limits assumed): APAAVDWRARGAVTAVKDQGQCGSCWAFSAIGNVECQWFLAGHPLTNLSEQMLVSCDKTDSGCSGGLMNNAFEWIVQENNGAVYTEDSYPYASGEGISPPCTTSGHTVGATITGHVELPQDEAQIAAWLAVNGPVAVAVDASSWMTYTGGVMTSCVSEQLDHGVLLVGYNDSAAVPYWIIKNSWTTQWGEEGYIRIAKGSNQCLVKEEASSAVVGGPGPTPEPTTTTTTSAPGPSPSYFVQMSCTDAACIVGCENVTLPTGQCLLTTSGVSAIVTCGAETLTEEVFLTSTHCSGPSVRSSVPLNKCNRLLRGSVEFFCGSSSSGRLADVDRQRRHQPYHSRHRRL
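Detergent-free condition (0.00005% Triton X-100) in acetate buffer pH 5.5 with DTT. 1.5 nM enzyme and compound were pre-mixed 15 min, then 2 uM Z-FR-AMC substrate added; reaction progress from fluorescence change between first and third reads (60 s).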
Cruzain Triton = inhibitors of Trypanosoma cruzi cruzain with detergent; purified cruzain, Z-FR-AMC fluorescence, 0.01% Triton; actives 0.43% (n = 200,000); P25779; Potency, µM, inactives show max response, negative = inhibition, usual class: inhibitors; AID 1478; active means well fitted curve in the direction sought with a large enough effect; inconclusive means small, poorly fitted or top-dose-only effect, or another doubt; inactive means no such curve, though single readings can be large; an effect the other way counts as inactive or inconclusive;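 further: plate controls were neutral wells for no effect and buffer without enzyme for full effect; nearly all actives have a fitted effect of over 40% in size; top concentration of the series not given in the record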
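Read-out: AMC fluorescence (360 nm excitation, 450 nm emission), four reads over 2 min, first-to-third difference used. Conditions: cruzain 1.5 nM, Z-FR-AMC 2 uM, pH 5.5 acetate, 5 mM DTT, 0.01% Triton X-100.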
MARV entry inh = blocks Marburg virus binding to or entry into cells; Marburg virus pseudotyped entry inhibition, cell reporter; control for the full effect not named in the record; about a third of the inactives were read at about 46 µM; Potency, µM (highest dose often 37.8 µM), for the others: at the highest dose activity change, negative = inhibition, most hits filed as inhibitors; actives 1.8% (n = 300,000); AID 540276; active = well fitted inhibition curve with a large enough effect; inconclusive = small, poorly fitted or top-dose-only effect, or effect the other way; inactive = flat fitted curve, though single readings scatter; tested in HEK293 cells; about a fifth of its hits are not listed in these tables; further: on the % scale 0 is the no-effect control and ±100 the full control effect; luciferase read-out
NS1 inh = inhibitors of influenza NS1 protein function. S. cerevisiae slowed by influenza A NS1, growth recovery by OD600. Potency, µM (top dose mostly 46.1 µM), for the others: at the top dose activity, positive = more growth. actives 0.4% (n = 270,000). AID 2326; further: actives are rising curves; nearly all actives have a fitted effect of over 50% in size
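OD600 was taken as the measure of yeast growth restored by compound in an NS1-expressing S. cerevisiae strain. Cells had been washed out of glucose medium and diluted 1:100 into galactose -URA medium, pH 6.0.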
SARS PLpro yeast = blocks SARS-CoV papain-like protease in a yeast assay. S. cerevisiae expressing SARS-CoV PLpro, growth rescue; control for the full effect not named in the record. Potency, µM (titrated, usually from 32.9 µM), inactives show at the highest dose activity, positive = growth rescue. actives 0.19% (n = 330,000); further: 0% is about no effect; nearly all actives have a fitted effect of over 55% in size; growth read by luminescence after 48 h
StopGo reporter = lowers the luciferase signal of an FMDV 2A StopGo reporter; human cells with a luciferase reporter of 2A StopGo recoding; control for the full effect not named in the record; Potency, µM (top dose mostly 57.9 µM), without a hit: top-dose signal change, negative = less light; actives 1.2% (n = 410,000); AID 1159524; active = well fitted falling curve with a large enough effect; inconclusive = small, poorly fitted or top-dose-only effect; inactive = no such curve, though single readings can be large or run the other way; tested in HEK293T cells; further: on the % scale 0 is the no-effect control and ±100 the full control effect; nearly all actives have a fitted effect of over 45% in size; luciferase light after 4 h
* = called active by the depositor; ? = inconclusive; . = not tested or not shown; & = joins results of further samples; [ ] = another dose, or the depositor's remark. Unless noted, the call rests on the fitted dose curve; in most records, active means well fitted rising curve with a large enough effect; inconclusive means small, poorly fitted or top-dose-only effect; inactive means no such curve, though single readings can be large or run the other way. Potency means the concentration at half of the fitted maximal effect.

Molecule	Lassa entry inh	RE007 growth inh	Cruzain inh noDet	Cruzain Triton	MARV entry inh	NS1 inh	SARS PLpro yeast	StopGo reporter
Cc1cc2ncc(C(=O)Nc3ccsc3C(=O)O)c(C)n2n1	-5%[46.1 µM]	-17%	.	.	-8%[46.1 µM]	.	0%	-2%
Cc1c(OC(C)C(=O)NCCN2CCOCC2)ccc2c3c(c(=O)oc12)CCCC3 (stereo unspecified)	.	5%	.	.	.	-9%	-6%	-22%
CN(C)CCCNc1oc(-c2ccccc2)nc1C#N	-1%	4%	10%	-6.7%	10%	-5%	8%	8%
CCCS(=O)(=O)N1CCc2cc(OC)c(OC)cc2C1	3%	-9%	-11%	-1.7%	18%	7%	2%	17%
O=C(Oc1ccccc1/C=C\C(=O)c1cc2ccccc2o1)c1ccccc1	?	-8%	-15%	-7.8%	?	-7%	7%	8%
O=c1oc2ccccc2c(O)c1C=NCc1ccccn1	?	7%	5%	-5.9%	-12%	-6%	-12%	7%
O=C(CN1C(=O)c2cccnc2Oc2ccc(Cl)cc21)N1CCOCC1	4%[46.1 µM]	-2%	.	.	4%[46.1 µM]	-2%	1%	2%
O=C(OCc1ccccc1)c1ccc(Br)o1	-11%	-1%	1%	1.2%	-19%	-7%	-1%	39%[activator]
CC(=O)NCCC(=O)Nc1nc(-c2ccc3c(c2)OCCO3)cs1	?	2%	.	.	-2%[46.1 µM]	4%	9%	8%
O=C1/C(=C/c2cccc([N+](=O)[O-])c2)N2CCC1CC2	7%	?	3%	-2.4%	?	-4%	8%	-28%
NC(N)=NC1=NC(=O)C(Cc2ccccc2Cl)S1 (stereo unspecified)	1%	-14%	.	.	7%	1%	0%	20%
COc1cccc(C2C(C(=O)c3sc(C)nc3C)=C(O)C(=O)N2CCN2CCOCC2)c1OC (stereo unspecified)	8%	2%	6%	-4.9%	10%&10%	-4%	2%	-24%
CCN(CCCNC(=O)c1cc(Nc2ccccc2OC)nc2ccccc12)c1cccc(C)c1	2%[46.1 µM]	.	-15%	-5.9%	3%[46.1 µM]	.	.	-25%
COC(=O)c1cc(OCC(=O)NC2CCCc3ccccc32)cc(C(=O)OC)c1 (stereo unspecified)	1%	0%	.	.	?	3%	27%	-14%
COc1ccc(NC(=O)CSc2nnc(NC(=O)c3ccccc3C(=O)O)s2)cc1	4%	22%	.	.	-6%[46.1 µM]	-5%	0%	17%
O=C1CCC(=O)N1N1C(=O)C2C3c4ccccc4C(c4ccccc43)C2C1=O (stereo unspecified)	3%[46.1 µM]	5%	.	.	3%[46.1 µM]	-5%	0%	-1%
COc1ccc(Nc2ccc(N3C(=O)CCCC3=O)cc2[N+](=O)[O-])cc1OC	0%	5%	8%	-6.9%	?	15%	-15%	-5%
CC(C)(C)c1ccc(OCCC(=O)OCC(=O)NC2CCCCC2)cc1	17%	5%	.	.	?	.	-8%	-16%
COc1ccc(-c2noc(CC(=O)Nc3ccc(C)c(F)c3)n2)cc1	4%[46.1 µM]	.	-23%	-2.2%	.	.	.	0%
CCC(=O)/C=C1/Sc2ccc(OC)cc2N1CC	5%	-7%	0%	-4.8%	3%	-11%	1%	.
CCOc1ccc(NC(=O)COC(=O)Cc2ccc(S(=O)(=O)N3CCOCC3)s2)cc1	17%	3%	18%	-6.1%	0%	2%	5%	.
COc1ccc(CCNC(=O)COC(=O)Cc2cc(OC)c(OC)c(OC)c2)cc1	.	-2%	.	.	.	-3%	0%	-17%
CCN(CC)CCCNC(=O)c1nn2c(C(F)(F)F)cc(-c3ccccc3)nc2c1Cl	.	0%	.	.	.	3%	17%	-16%
Cc1ccc(CSc2nnc(-c3ccccn3)n2C)cc1	-8%	11%	8%	-5.0%	-2%	-59%	-24%	72%[activator]
CCOc1ccc(S(=O)(=O)N2CCCC(C(=O)NC3CC3)C2)cc1Cl (stereo unspecified)	10%	6%	.	.	-6%	.	3%	-2%
CCn1c(CNC(=O)Cc2ccc(OC)cc2)nnc1SCC(=O)Nc1ccc(C(=O)O)cc1	21%[46.1 µM]	-10%	.	.	12%[46.1 µM]	2%	0%	-22%
COc1ccc(CCNCC(=O)Nc2ccc(C)c(Br)c2)cc1OC	0%[46.1 µM]	-10%	.	.	?	-10%	-1%	11%
CCNC(=O)CN(Cc1ccccc1)S(=O)(=O)c1ccccc1	18%	3%	8%	0.9%	?	3%	1%	.
NC(=O)c1ccc(-n2nnnc2Oc2ccccc2C(=O)N2CCOCC2)cc1	-1%	-6%	-5%	3.6%	2%[46.1 µM]	-1%	4%	-14%
COc1cc(CN2CCN(C(=O)c3ccc(-c4ccccc4)cc3)CC2)cc(OC)c1OC	?	2%	.	.	?	0%	0%	-10%
O=C(NC1=NCCS1)C1COc2ccccc2O1 (stereo unspecified)	?	-2%	-2%	2.1%	1µM*	-6%	-4%	10µM*
CC(NC(=O)NC(=O)c1ccc(Cl)cc1)c1ccccc1 (stereo unspecified)	.	-4%	.	.	.	5%	-2%	-23%
CC1CC(C)CN(C(=O)c2ccc(CSc3nc4ccncc4[nH]3)cc2)C1 (stereo unspecified)	?	5%	9%	2.0%	-29%	9%	13%	?
O=C(NCC(=O)N1CCN(Cc2ccc3c(c2)OCO3)CC1)c1ccccc1F	4%[46.1 µM]	12%	.	.	-1%[46.1 µM]	.	5%	12%
O=C(CCNC(=O)c1ccccc1Cl)Nc1nccs1	8%	-4%	.	.	12%[46.1 µM]	.	4%	7%
CN1C(=O)/C(=C/c2ccccc2F)Sc2ccc(C(=O)N3CCCC3)cc21	?	10%	.	.	?	-37%	1%	-26%
CC1=C(C(=O)N2CCOCC2)C(c2cccc(C)c2)NC(=S)N1 (stereo unspecified)	-1%	15%	-7%	-2.4%	?	25%	18%	-12%
CCn1nc(C(=O)OCC(=O)NCCN2C(=O)CSC2=O)c2ccccc2c1=O	10%	0%	-3%	-0.5%	31%[46.1 µM]	1%	-1%	8%
COC(=O)c1ccc(C2/C(=C(\O)c3cccc(OC)c3)C(=O)C(=O)N2CCCN2CCOCC2)cc1 (stereo unspecified)	14%	21%	-5%	-3.6%	-2%	-3%	13%	-10%
COc1ccc2nc(NC(=O)CCNS(=O)(=O)c3ccc4c(c3)oc(=O)n4C)sc2c1	3%	15%	6%	4.5%	13%	6%	5%	22%
CCCCN1C(=O)C(O)(c2c[nH]c3ccccc23)c2cc(Br)ccc21 (stereo unspecified)	-16%[46.1 µM]	.	5%	-13%	?	.	.	-12%
COc1ccc(C(=O)Nc2nnc(SCc3cc(=O)c4cc(C)cc(C)c4[nH]3)s2)cc1	14%[46.1 µM]	.	-7%	-2.6%	.	.	.	12%
CC(=O)C1=C(C)NC(=O)NC1c1cccs1 (stereo unspecified)	9%	10%	-5%	2.9%	?	2%	-3%	.
CC1(C)NC(=O)N(CC(=O)OCC(=O)c2ccc(Br)s2)C1=O	11%[46.1 µM]	10%	.	.	15%[46.1 µM]	.	-3%	2%
COc1ccccc1NC(=O)CN1CCN(c2ccccc2OC)CC1	.	0%	.	.	.	-7%	0%	-6%
CCSc1nnc2c(n1)[nH]c1c(C)cccc12	-11%	?	3%	-0.9%	?	-157%	-18%	.
Fc1ccc(-c2nc3ccccc3[nH]2)cc1	?	-25%	.	.	-1%	-37%	-2%	-7%
COc1cccc(-c2cn3nc4c(nc3n2)CCCC4)c1	?	?	-11%	-11%	?	-11%	-8%	-85%
Cc1ccc(CN2CCC(CNC(=O)c3cnn(-c4ccccc4Cl)c3C3CCN(C(=O)OC(C)(C)C)CC3)CC2)cc1	?	.	-10%	-1.9%	.	.	.	-26%
N#Cc1cccc(NC(=O)c2ccccc2C(=O)O)c1	-14%	3%	-5%	7.0%	22%	8%	3%	14%

(list continues)
Molecule	Lassa entry inh	RE007 growth inh	Cruzain inh noDet	Cruzain Triton	MARV entry inh	NS1 inh	SARS PLpro yeast	StopGo reporter
NCC(c1ccccc1Cl)c1c[nH]c2ccccc12 (stereo unspecified)	-15%[46.1 µM]	-6%	.	.	?	24%	4%	-26%
Cc1ccc2oc(=O)n(CCCOc3ccccc3Cl)c2c1	3%[46.1 µM]	.	-10%	-7.5%	2%[46.1 µM]	.	.	11%
COc1ccc(OCCCC(=O)OCC(=O)Nc2ncc(Cl)cc2Cl)cc1	2%	-1%	.	.	2%[46.1 µM]	.	1%	-22%
O=C(NC(=O)N1CCN(c2ccc([N+](=O)[O-])cn2)CC1)c1c(Cl)cccc1Cl	24%	6%	.	.	0%[14.2 µM]	4%	1%	-8%
CCCCn1c(-c2cccc(C)c2)nc2cc3[nH]c(=O)c(C(C)C)nc3cc21	.	-27%	.	.	.	?	-13%	?
O=C(COc1cccc(Cl)c1)Nc1nc(-c2ccc(S(=O)(=O)N3CCOCC3)cc2)cs1	?	3%	13µM*	1.2%	?	?	11%	?
O=C(Oc1ccc2ccccc2c1Cl)N1CCCC1	?	-16%	-6%	-5.9%	?	-45%	-1%	2%
COc1ccc(Cn2c(C3CC3)nc3ccc(NC(=O)c4ccco4)cc3c2=O)cc1	?	1%	18%	-4.8%	?	-36%	6%	14%
Cc1ccc(C(=O)Nc2cccc(C(F)(F)F)c2)cc1NC(=O)c1cnnc2ccccc12	.	2%&-4%	.	.	.	-4%	4%	-23%&-3%
COC(=O)c1ccc(CN2CCN(Cc3ccc(F)cc3)C(CCO)C2)cc1 (stereo unspecified)	?	-21%	.	.	?	0%	0%	?
COc1ccc(/C=C2\C(=O)N(Cc3ccc(F)cc3)CC(=O)N2Cc2ccccc2)cc1	?	0%	-4%	-1.4%	?	-2%	-4%	-12%
C=CCC(=O)N(CC)CC1CCCN(CCc2cccc(F)c2)C1 (stereo unspecified)	.	-3%	.	.	.	9%	3%	12%
COc1cc(OC)cc(C(=O)OCC(=O)Nc2cccc(C(C)=O)c2)c1	-8%	13%	.	.	10%	3%	1%	-9%
